Assay outcomes (PubChem)
Measles inh – inhibitors of measles virus growth in infected cells; infected Vero cells, GFP fluorescence, 64 h; hits give low values; z-score (concentration not given with the values); actives 0.1% (n = 33,000); AID 745;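 active means z-score under -3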;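 further: score is relative to mean and SD of the compound wells of a plate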
An asterisk follows results filed as active.

SMILES	Measles inh
COCCNC(=O)c1cc(S(=O)(=O)N2CCOCC2)ccc1Sc1ccc(Br)cc1	-0.21
O=C(Nc1cccc2nsnc12)c1ccccc1Cl	-0.01
COc1ccc(C(=S)N2CCOCC2)cc1OCc1ccccc1	0.73
CCOc1ccc(C(=O)Nc2cc3nn(-c4ccc(Cl)cc4)nc3cc2C)cc1[N+](=O)[O-]	1.6
COc1ccc(C2OC(=O)C(O)=C2C(C)=O)cc1OC (stereo not drawn)	-0.02
Cc1ccc(NC(=O)c2cccc(C(=O)Nc3ccc(C)c(Cl)c3)c2)cc1Cl	-1.5
COCCn1c(=S)[nH]c2cc(C(=O)N3CCc4ccccc4C3)ccc2c1=O	0.36
CSc1ccc(C2C(C(=O)OC3CCCCC3)=C(C)Nc3nc4ccccc4n32)cc1 (stereo not drawn)	0.4
CC(CC(=O)O)CC(=O)Nc1ccc(C(=O)O)cc1 (stereo not drawn)	0.03
COc1ccc(OC)c2[nH]c(=O)c(CCNC(=O)c3ccccc3I)cc12	-0.19
O=C(NCC1CCCO1)c1ccc2c(=O)n(Cc3ccc4c(c3)OCO4)c(=S)[nH]c2c1 (stereo not drawn)	0.31
CCOc1ccc(C(=O)Nc2c3c(nn2-c2ccc(OC)cc2)CS(=O)(=O)C3)cc1	1.2
Cc1ccc(CCNC(=O)c2coc3nc4ccccc4nc23)cc1	-0.21
CCC(Oc1ccc2c(c1)C(=O)CC(C)(C)O2)C(=O)NCCN1CCCCCC1 (stereo not drawn)	0.49
CCOC(=O)C1=C(N)OC2=C(C(=O)CC(c3ccccc3)C2)C1c1ccsc1 (stereo not drawn)	-0.52
CCOC(=O)C(=O)NCC1COc2ccccc2O1 (stereo not drawn)	-0.03
COc1ccc(S(=O)(=O)N2CCc3ccccc3C2C(=O)O)cc1 (stereo not drawn)	0.1
COc1cccc(C2NC(C(=O)O)C3C(=O)N(c4cccc(C(=O)O)c4)C(=O)C23)c1O (stereo not drawn)	-0.25
CCOCCn1c(SCC(=O)O)nc2c1c(=O)[nH]c(=O)n2C	0.21
CCN(CC)S(=O)(=O)N1CCC(C(=O)NCCN2CCOCC2)CC1	1.7
Cc1ccc(-n2c(SCc3cc(=O)n4cc(Cl)ccc4n3)nc3ccsc3c2=O)cc1C	0.68
O=C(CCC1CCCCC1)Nc1c2c(nn1-c1ccc(F)cc1)CS(=O)(=O)C2	-0.65
C=CCN1C(=O)C(CC(=O)O)SC1=Nc1ccc(C)cc1 (stereo not drawn)	0.44
CC1(C(=O)NC2CCCCC2)CCC(=O)N1Cc1cccnc1 (stereo not drawn)	0.33

Compounds from the list above containing an aryl methoxy group (six):
SMILES	Measles inh
COc1ccc(C(=S)N2CCOCC2)cc1OCc1ccccc1	0.73
COc1ccc(C2OC(=O)C(O)=C2C(C)=O)cc1OC (stereo not drawn)	-0.02
COc1ccc(OC)c2[nH]c(=O)c(CCNC(=O)c3ccccc3I)cc12	-0.19
CCOc1ccc(C(=O)Nc2c3c(nn2-c2ccc(OC)cc2)CS(=O)(=O)C3)cc1	1.2
COc1ccc(S(=O)(=O)N2CCc3ccccc3C2C(=O)O)cc1 (stereo not drawn)	0.1
COc1cccc(C2NC(C(=O)O)C3C(=O)N(c4cccc(C(=O)O)c4)C(=O)C23)c1O (stereo not drawn)	-0.25

Continued:
SMILES	Measles inh
CC1CC(C)CN(S(=O)(=O)c2ccc(C(=O)Nc3nc(-c4ccc(I)cc4)cs3)cc2)C1 (stereo not drawn)	-0.25
O=C(Cc1ccc([N+](=O)[O-])cc1)N1CCCc2ccccc21	-0.11
CCN(CC)S(=O)(=O)c1ccc(C(=O)Nc2ccc(OC)cc2[N+](=O)[O-])cc1	-0.68
O=C(NCCN1CCc2ccccc2C1)c1cc(-c2cccs2)nc2ccccc12	-0.55
Cc1cc(N)ccc1NC(=O)c1ccc(N)cc1	-0.05
O=C(Oc1cccnc1)c1cccnc1	0.03
COc1ccc(CCNC(=O)C2CCN(S(=O)(=O)c3ccc(C)cc3)CC2)cc1OC	1.2
Cc1cc(NC2=NS(=O)(=O)c3cc([N+](=O)[O-])ccc32)c([N+](=O)[O-])cc1C	-0.53
Nc1cnn(C2OC(CO)C(O)C2O)c(=O)n1 (stereo not drawn)	-0.7
COc1cccc(C(=O)Cn2c(N3CCOCC3)nc3c2c(=O)n(C)c(=O)n3C)c1	0.57
COc1ccc(OC)c(C2C=C(c3ccc(Cl)cc3)Nc3nnnn32)c1 (stereo not drawn)	-0.35
c1cnc2c(c1)ccc1[nH]ccc12	0.28

2 of these compounds in another layout.
Measles inh,molecule
-0.35,COc1ccc(OC)c(C2C=C(c3ccc(Cl)cc3)Nc3nnnn32)c1 (stereo not drawn)
0.28,c1cnc2c(c1)ccc1[nH]ccc12

Of the compounds above, these have a COOH group:
SMILES	Measles inh
CC(CC(=O)O)CC(=O)Nc1ccc(C(=O)O)cc1 (stereo not drawn)	0.03
COc1ccc(S(=O)(=O)N2CCc3ccccc3C2C(=O)O)cc1 (stereo not drawn)	0.1
COc1cccc(C2NC(C(=O)O)C3C(=O)N(c4cccc(C(=O)O)c4)C(=O)C23)c1O (stereo not drawn)	-0.25
CCOCCn1c(SCC(=O)O)nc2c1c(=O)[nH]c(=O)n2C	0.21
C=CCN1C(=O)C(CC(=O)O)SC1=Nc1ccc(C)cc1 (stereo not drawn)	0.44

The results go on:
SMILES	Measles inh
CCOC(=O)c1cnn(-c2cccc(Cl)c2)c1N	-0.57
O=C(NC1CCCC1)c1ccc2c(c1)N(Cc1ccccc1Cl)C(=O)c1ccccc1S2	0.37
CN1CCN(S(=O)(=O)c2ccc3c(c2)CCN3C(=O)C2CC2)CC1	-0.56
COc1ccc(OC)c(C(O)c2nc3ccccc3n2C)c1 (stereo not drawn)	-0.9
CCOC(=O)c1c(NC(C)=O)sc(C)c1C	0.98
O=C(COc1ccccc1Cl)Nc1ccc(NC(=O)c2nccs2)cc1	0.91
COC(=O)C(NC(=O)C(F)(F)F)(C(C(C)=O)C(C)=O)C(F)(F)F (stereo not drawn)	-2
COC(=O)C1=C(C(=O)OC)SC(=C2C(=S)C(C)(C)N(C(=O)c3ccccc3)c3cc(OC)ccc32)S1	-0.21
Cn1c(=O)n(C)c2cc(CO)ccc21	0.9
COc1cccc(C(=O)Nc2ccc(NC(=O)c3ccco3)c(Cl)c2)c1	-0.16
CC1=NN(C(=O)c2ccccc2F)C(O)(c2ccc(Cl)cc2)C1 (stereo not drawn)	1.2
CC1=C(C(=O)OCCc2ccccc2)C(c2coc3ccc(C)cc3c2=O)C2=C(CC(C)(C)CC2=O)N1 (stereo not drawn)	-0.55
COc1ccc(-n2c(=S)[nH]c3cc(C(=O)Nc4cccnc4)ccc3c2=O)c(OC)c1	0.25
CCN(C(=O)c1cc2cc3ccc(C)cc3nc2s1)c1ccc(F)cc1	0.09
O=C(c1cc([N+](=O)[O-])ccc1Cl)N1CCc2ccccc2C1	-0.62
COc1ccc(Cl)cc1NC(=O)c1cc(S(=O)(=O)N2CCC(C)CC2)ccc1F	0.16
CCC(Sc1nnnn1-c1ccccc1)C(=O)N1c2ccccc2Sc2ccccc21 (stereo not drawn)	0.21
CCOC(=O)C1CCN(C(=O)CCn2c(=O)[nH]c3cc(OC)c(OC)cc3c2=O)CC1	0.04
Cc1ccc(C)c(NC(=O)CSc2nccn2-c2ccccc2)c1	0.76
Cc1ccc(S(=O)(=O)N2CCN(C(=O)c3ccc([N+](=O)[O-])cc3)C2)cc1	-0.75
CCc1ccc(-n2c(-c3ccco3)n[nH]c2=S)cc1	0.99
CC1CN(C(=O)c2cccs2)CC(C)O1 (stereo not drawn)	0.33
CCC(CC)C(=O)Oc1ccc2c(=O)c(Oc3ccccc3Br)coc2c1	-0.36
COc1cc2c(C)nc(-c3ccccc3)c(-c3ccccc3)c2cc1OC	-0.5
COc1ccc(S(=O)(=O)Nc2ccc(O)c(Br)c2)cc1	0.41
O=C(c1ccc2c(=O)n(CCC3=CCCCC3)c(=S)[nH]c2c1)N1CCN(c2ccc(F)cc2)CC1	0.82
Nc1nonc1-c1nc2ccccc2s1	0.45
COc1ccc(C(=O)N2N=C(C3CCCCC3)CC2(O)C(F)(F)F)cc1OC (stereo not drawn)	-0.13
Cn1cc(C(=O)NCCN2CCN(c3cccc(Cl)c3)CC2)c2c3ccccc3n(C)c2c1=O	-0.05
Cc1[nH]nc(SCC(=O)N2CCC(C)CC2)c1[N+](=O)[O-]	-0.82
C=CCSc1nc2c(c(=O)[nH]c(=O)n2C)n1Cc1ccc(C)cc1	1.3
Brc1ccc2ncnc(-c3ccccc3)c2c1	1.3
COc1ccccc1N1C(=O)CC(N(CCC23CC4CC(CC(C4)C2)C3)C(C)=O)C1=O (stereo not drawn)	-0.68
O=C(Nc1cccc(O)c1)c1cnn2c(C(F)(F)F)cc(-c3cccs3)nc12	0.03
COc1ccc(-n2c(=S)[nH]c3cc(C(=O)Nc4ccc(C)c(C)c4)ccc3c2=O)c(OC)c1	0.43
Cc1ccc2nc(Nc3nc(C)c(C)c(=O)[nH]3)nc(C)c2c1	-0.72
OCCCc1nc2n(n1)C(c1ccco1)C=C(c1ccc(Cl)cc1)N2 (stereo not drawn)	-0.04
CC(=O)NS(=O)(=O)c1ccc(NC(=O)CC(C)(C)C)cc1	0.77
Cn1c(=O)c(-c2ccc3ccccc3n2)cc2cc(Br)ccc21	0.85
O=C1CC(NCc2cccnc2)C(=O)N1c1ccc(Cl)cc1 (stereo not drawn)	-0.26
Cc1nn(-c2ccccc2)c(C)c1Sc1ccc(Br)cc1	0.18
CCc1ccc2nc(N3CCC(C(=O)NCCCN4CCCC4)CC3)sc2c1	0.55
CCOc1ccc(N2CC(O)Cn3c2nc2c3c(=O)[nH]c(=O)n2C)cc1 (stereo not drawn)	-1.5
COc1ccc(-c2cc(C(N)=O)on2)c(OC)c1	-1.1
COc1ccc(Cl)cc1NS(=O)(=O)c1cnc[nH]1	0.18
CCC(Sc1ncnc2c1sc1ccccc12)C(=O)Nc1cccc(C)c1 (stereo not drawn)	-1.6
Cc1cc(C)c(C#N)c(SC2CCCCC2=O)n1 (stereo not drawn)	0.33
COc1ccc(-n2nc(C(=O)NCC(=O)Nc3nc4ccccc4s3)c3ccccc3c2=O)c(OC)c1	0.19
O=C(Nc1ccc2c(c1)OCO2)C1c2ccccc2C(=O)N2CCc3ccccc3C12 (stereo not drawn)	1.9
COc1cc(OC)c(NC(=O)c2sc3nc(C)n(C)c(=O)c3c2C)cc1Cl	-0.45
CCOc1ccc(C(=O)Nc2ccc(-c3nc4ncccc4o3)cc2)cc1Cl	0.27
CCOc1ccc(CNC(=O)C2c3ccccc3C(=O)N(C)C2c2c[nH]c3ccccc23)cc1 (stereo not drawn)	-0.69
CCOc1ccc(N2CC(C(=O)OCC(=O)Nc3ccccc3C(F)(F)F)CC2=O)cc1 (stereo not drawn)	-0.99
O=C(Nc1ccccc1C(=O)Nc1ccc(Br)cc1)c1ccccc1F	-0.48
CN1CCN(CCCNC(=O)C2c3ccccc3C(=O)N(C)C2c2cn(C)c3ccccc23)CC1 (stereo not drawn)	0.68
COc1ccc(Br)cc1C1Nc2ccc(Cl)cc2C2C=CCC21 (stereo not drawn)	-0.51
CCCNC(=O)c1ccc(NCC2CCCO2)c([N+](=O)[O-])c1 (stereo not drawn)	-0.36
CCOC(=O)c1c(NC(=O)c2cc3n(n2)C(C(F)(F)F)CC(c2ccco2)N3)sc2c1CCCCC2 (stereo not drawn)	-1
CC(C)CC(=O)Nc1ccccc1C(=O)Nc1ccc(C(=O)O)cc1	-0.05
CC(=O)N1CCc2cc(S(=O)(=O)CCC(=O)Nc3cccc(F)c3)ccc21	-0.8
(next part)
SMILES	Measles inh
CCCCn1c(=S)[nH]c2c1c(=O)[nH]c(=O)n2C	0.43
Cc1cccc(C)c1NC(=O)CSc1ccc([N+](=O)[O-])cn1	0.01
CCC(=O)N1c2ccccc2-c2nnc(SC)nc2OC1c1cccs1 (stereo not drawn)	-1.8
CC(CC(=O)O)CC1=NS(=O)(=O)c2ccccc2N1 (stereo not drawn)	0.51
Cc1nc2nc(SCC(=O)NC3CC3)nn2c(C)c1Cc1ccccc1	0.12
COc1cc2c(cc1NC(=O)COc1ccccc1OC)oc1ccccc12	-0.09
COC(=O)c1cc(NS(=O)(=O)c2ccc(Br)cc2)cc(C(=O)OC)c1	2.5
O=C1c2cccnc2C(=O)N1c1cccc(-c2nc3ccccc3s2)c1	-0.68
CCCCn1cnc2oc(-c3ccccc3)c(-c3ccccc3)c2c1=N	-0.31
O=C1c2ccccc2C(=O)N1CC=CCN1C(=O)c2ccccc2C1=O	0.29
Cc1ccc(Cl)cc1N1CCN(C(=O)C2CCC(CNS(=O)(=O)c3cccs3)CC2)CC1 (stereo not drawn)	-0.75
COc1cc(C(=O)C(=O)c2cc(OC)c(OC)c(OC)c2)cc(OC)c1OC	1.9
CC1CC(Nc2ccccc2)c2ccccc2N1C(=O)c1ccc(C(C)(C)C)cc1 (stereo not drawn)	0.84
CCOC(=O)C1=C(C)NC(=O)NC1c1cc(OC)c(OC)cc1Br (stereo not drawn)	-0.76
CCc1ccc(Nc2cc(C(=O)NCc3ccc(OC)cc3)c3ccccc3n2)cc1	-0.31
CCOC(=O)CC(=O)CSc1nc2ccccc2c(=O)n1Cc1ccccc1	-0.21
CCOC(=O)c1c(NC(=O)CSc2nnc(C)c(=O)[nH]2)sc2c1CCN(C)C2	0.91
Cc1cccc(-n2nc3c(c2NC(=O)c2ccccc2[N+](=O)[O-])CS(=O)(=O)C3)c1C	1.4
CC1CCC2C(=O)N(c3ccc(OC(C)C(=O)c4ccccc4)cc3)C(=O)C2C1 (stereo not drawn)	-1.1
O=C(Nc1cccc(Cl)c1)c1n[nH]c(=O)c2ccccc12	-2.5
CS(=O)(=O)NCCNc1ccc(Cl)cc1[N+](=O)[O-]	-0.71
CC(=O)N(CCCN1C(=O)c2cccc3cccc(c23)C1=O)c1ccc(C(C)(C)C)cc1	-0.01
Cc1ccc2cc3cc(C(=O)NCC4(c5ccccc5)CCCC4)oc3nc2c1	-0.44
COC(=O)c1c(-n2cnnn2)sc(C)c1C	-0.6

These rows are one share of the data (hit frequency here may not be typical).
